Compound activity as filed in PubChem.
VACV Venus inh: qHTS for Stage-Specific Inhibitors of Vaccinia Orthopoxvirus: Venus Reporter Primary qHTS; Vaccinia virus Venus reporter expression, fluorescence; Potency, µM (doses to about 36.5 µM), for inactives: top-dose activity change, negative = inhibition, usual class: inhibitors; actives 0.46% (n = 330,000); AID 720580, 2013; active means well fitted inhibition curve with a large enough effect; inconclusive means small, poorly fitted or top-dose-only effect; inactive means no such curve, though single readings can be large or run the other way; tested in A549 cells; note: nearly all actives have a fitted effect of over 30% in size; inactives centre near -10
VACV mCherry inh: qHTS for Stage-Specific Inhibitors of Vaccinia Orthopoxvirus: mCherry Reporter Primary qHTS; Vaccinia virus mCherry reporter infection, fluorescence; about a quarter of the inactives have no number; Potency, µM (titrated, usually from 36.5 µM), without a hit: at the top dose activity change, negative = inhibition, actives largely listed as inhibitors; actives 0.63% (n = 310,000); active = well fitted inhibition curve with a large enough effect; inconclusive = small, poorly fitted or top-dose-only effect; inactive = no such curve, though single readings can be large or run the other way; tested in A549 cells; note: nearly all actives have a fitted effect of over 35% in size; inactives centre near -10
* marks the source's active call; other numbers are inactive results; i = inactive; u = inconclusive; x = not tested or not shown; [ ] = another dose, or the depositor's remark. % is set by controls: 0 for no effect and ±100 for the full control effect; potency is the fitted concentration of half-maximal effect. Random draw from the library, and some 0.86% of all compounds hit somewhere here.

Molecule	VACV Venus inh	VACV mCherry inh
S=C(Nc1ccc(Cl)cc1Cl)NC1CCCCC1	-26.2%	x
COc1ccccc1C(=O)N1CCN(C(=O)c2oc3c(C)c(C)ccc3c2C)CC1	-19.4%	-24.7%
CC(=O)Nc1ccc(S(=O)(=O)N(C)CC(=O)OC2CCCCC2=O)cc1 (stereo not drawn)	-2.0%	-13.0%
O=S(=O)(Nc1ccc(-c2cn3c(n2)SCC3)cc1)c1ccccc1F	-12.6%	i
Cc1ccn2cc(CCNS(=O)(=O)c3ccc4ccccc4c3)nc2c1	-15.5%	-22.2%
O=C1c2ccccc2C(=O)C12OC(c1ccccc1)C1(C(=O)c3ccccc3C1=O)C2c1ccc([N+](=O)[O-])cc1 (stereo not drawn)	-6.4%	-7.7%
CC(=O)Nc1ccc(S(=O)(=O)Nc2ccc3c(c2)OCCO3)cc1	-7.6%	-1.2%
NC(Cc1ccc(C(F)(F)F)cc1)c1csc(Nc2ccccn2)n1 (stereo not drawn)	u	11.2µM*
CCN(CC(=O)NCc1ccc(F)cc1)C(=O)c1cc2ccccc2o1	-2.4%	-13.8%
Cc1c(Cl)cccc1NC(CC(=O)c1ccccc1)C(=O)O (stereo not drawn)	-6.2%	-9.9%
c1ccc(CC[n+]2ccncc2)cc1	-12.5%	i
Cc1ccc(C(=O)OCC(=O)N2CC(C)OC(C)C2)cc1 (stereo not drawn)	-5.7%	u
O=C1CCCC(=O)C1=C1SCCCS1	-7.8%	4.4%
COc1cccc(NC(=O)CN2CCN(CC(=O)Nc3ccc(F)cc3)CC2)c1	-16.2%	-5.6%
Cc1cccc(Cc2c(C)nc3nc(SCC(=O)NC4CCCCC4)nn3c2C)c1	-2.5%	-7.5%
Cc1oc2cc(OC(C)C(=O)O)ccc2c(=O)c1Oc1ccccc1 (stereo not drawn)	-2.7%	-3.0%
C/C(=N/OC(=O)c1c(-c2ccccc2Cl)noc1C)c1cnccn1	-15.2%	-13.4%
O=C(CN1C(=O)NC2(CCCC2)C1=O)Nc1ccccc1N1CCCCC1	-16.6%	i
CCOC(=O)C1(C)CCCCCN1C(=O)c1ccc(SC(F)(F)F)cc1 (stereo not drawn)	-0.4%	1.9%
CC1CC(C)CN(C(=S)Nc2ccc3nc4n(c(=O)c3c2)CCCCC4)C1 (stereo not drawn)	-7.9%	-17.2%
Cc1cc(=O)oc2cc(OCc3ccc(C(=O)OCC(=O)Nc4ccc(N(C)C)cc4)cc3)ccc12	-1.2%	i
Cc1ccc(-c2cc(C(F)(F)F)nn2-c2ccc(S(N)(=O)=O)cc2)cc1	u	u
Cn1c(COc2ccccc2)nc2ccccc21	-12.4%	i
Cc1cc(C)c(C(=O)CN2C(=O)NC3(CCC(C)CC3)C2=O)cc1C (stereo not drawn)	-7.2%	-12.4%
O=Cc1cn(CCOc2ccc(F)cc2)c2ccccc12	-19.6%	i
Cc1onc(-c2ccc(Cl)cc2Cl)c1-c1csc(COc2ccccc2)n1	-5.9%	u
O=C(NCCCc1nc2ccccc2n1Cc1ccc(Cl)cc1)c1ccco1	-9.8%	-12.2%
CC(=O)c1ccsc1-c1c(C)cc2oc(=O)cc(-c3ccccc3)c2c1C	-14.9%	i
CCc1nnc(NC(=O)CSc2nnc(CNc3ccc(OC)cc3)n2C)s1	0.3%	-11.5%
CCCCCC(=O)N1C[C@@H](O)[C@H](n2cc(C3CC3)nn2)C[C@@H]1c1ccc(C)cc1	-23.9%	i

Reformatted with values under each structure: entries from further up.
Sequence of screens: VACV Venus inh | VACV mCherry inh
> Cn1c(COc2ccccc2)nc2ccccc21
  -12.4% | i
> Cc1cc(C)c(C(=O)CN2C(=O)NC3(CCC(C)CC3)C2=O)cc1C (stereo not drawn)
  -7.2% | -12.4%

(cont.)
Molecule	VACV Venus inh	VACV mCherry inh
CCSc1nnc(NC(=O)CSc2c(Cl)cccc2Cl)s1	-4.4%	-16.3%
Cc1ccc(S(=O)(=O)N(C)C[C@H]2Oc3cc(Br)ccc3S(=O)(=O)N([C@H](C)CO)C[C@H]2C)cc1	u	u
COc1cccc(-c2cc(C(=O)N3CCN(S(=O)(=O)c4ccccc4)CC3)[nH]n2)c1	-16.5%	-17.4%
COc1ccc(NC(=O)Cn2c(SCc3c(F)cccc3Cl)nc3ccncc32)cc1OC	6.4%	-11.6%
COc1ccccc1OCCNC(=O)c1c(-c2ccccc2Cl)noc1C	-11.9%	-8.9%
Cc1noc(C)c1COc1ccc(C(=O)O)cc1	-9.6%	-1.4%
COc1c(-c2ccc(O)cc2)oc2cc(O)cc(O)c2c1=O	u	20µM*
COc1ccc(CCNC(=O)c2cc(-c3ccco3)nc3ccccc23)cc1	-12.0%	i
CCCC(=O)Nc1nc2c(ncn2[C@@H]2O[C@H]3COP(=O)(O)O[C@@H]3[C@@H]2OC(=O)CCC)c(=O)[nH]1	-10.7%	-12.7%
c1cncc(C2Nc3ccccc3-c3nc4ccccc4n32)c1 (stereo not drawn)	-20.5%	u
COc1ccc(/C(C#N)=C/c2ccccn2)cc1	-19.7%	-18.4%
COC(=O)[C@@H]1C[C@H]1[C@@H](NS(=O)(=O)c1ccccc1)c1ccccc1	-6.3%	i
CCOC(=O)c1cc(-c2ccc(C)cc2)n(CC(=O)NCc2ccco2)c1C	3.8%	21.7%
CC(C)(C)c1ccc2c(c1)N(CC(=O)N1CCOCC1)C(=O)CO2	-8.2%	i
O=C(CSc1nc(Nc2ccccc2)nc(N2CCOCC2)n1)Nc1cccc([N+](=O)[O-])c1	-28.3%	u
CCOc1ccccc1NC(=O)C1=C(C)Nc2ncnn2C1c1ccc(NC(C)=O)cc1 (stereo not drawn)	-2.6%	-0.3%
CS(=O)(=O)N1CC2CCCN2c2cc(C(F)(F)F)ccc21 (stereo not drawn)	-11.7%	-17.2%
CCCCCn1c(SCCOCC)nc2c1c(=O)[nH]c(=O)n2C	-1.9%	i
Cc1nc(NC(=O)c2ccco2)sc1C(=O)O	-7.8%	1.4%
COc1cc(C)c(Br)cc1S(=O)(=O)NCc1ccccc1	-3.8%	-6.1%
C=CCCC1(CC(C)C)C(=O)NC(=S)NC1=O	-1.0%	i
CN(C)C(=O)OCc1n(C)cc[n+]1C	-2.9%	i
CCOC(=O)c1c(C)nsc1NC(=O)C1(C)CCN1C(=O)CC (stereo not drawn)	-4.9%	i
O=C(Nc1cccc(C(F)(F)F)c1)C1Cc2c(-c3ccco3)ccnc2O1 (stereo not drawn)	-12.5%	-8.3%
O=C(CN(C(=O)c1ccccc1Cl)C1CCCCC1)Nc1ccc(Cl)c([N+](=O)[O-])c1	u	u
CCc1nc2ccc(C(=O)N3CCN(C(C)=O)CC3)cn2c1N(CC)C(=O)NCCc1ccccc1	-5.9%	4.0%
O=[N+]([O-])c1cc(-c2nnc(N3CCOCC3)c3ccccc23)ccc1N1CCOCC1	u	u
CCN(CC)S(=O)(=O)c1ccc2oc(C(=O)N3CCc4ccccc4C3)c(C)c2c1	-3.0%	-11.6%
O=C(Nc1nnc(SCc2ccc(F)cc2)s1)C1Cc2ccccc2CN1C(=O)c1ccco1 (stereo not drawn)	-5.7%	-8.2%
O=C(CC1C(=O)N(c2ccc(F)cc2)C(=O)N1Cc1cccnc1)Nc1ccc(F)cc1 (stereo not drawn)	-4.2%	-5.7%

Molecule	VACV Venus inh	VACV mCherry inh
O=C(CCCCC(=O)NN=Cc1ccc(Cl)cc1)NN=Cc1ccc(Cl)cc1	-1.5%	-9.2%
O=C(CCC1CC(=O)Nc2ccccc21)NCc1ccc(F)cc1 (stereo not drawn)	-4.4%	-15.6%
CCOC(=O)CNC(=O)CN1CCCN(S(=O)(=O)c2ccc(Br)s2)CC1	-4.3%	i
CCOc1ccccc1C(=O)Oc1c(S(=O)(=O)c2ccc(C)cc2)c(C)nn1-c1ccccc1	u	u
COc1ccc(Cn2c(CNS(=O)(=O)c3ccc4c(c3)CCCC4)nc3cccnc32)cc1	-4.7%	-12.6%
COc1ccccc1CNc1nc(NCCN2CCNC2=O)c2sccc2n1	-11.3%	-16.1%
CCC(=O)N=c1sc2ccccc2n1-c1ccccc1	-6.9%	i
CN(C)c1cccc(CN2CCN(c3ccccc3)CC2)c1	-1.9%	i
Cc1cccc(-c2oc3ccc(-c4ccc5c(c4)OCO5)cc3c2C#Cc2cncn2C)c1	u	-15.3%
O=C1/C(=C/c2ccsc2)N2CCC1CC2	-3.2%	-5.7%
CN(C)[C@@H]1C(=O)C(C(N)=O)=C(O)[C@@]2(O)C(=O)C3=C(O)c4c(O)ccc(Cl)c4[C@@](C)(O)C3C[C@@H]12 (stereo partly drawn)	u	u
O=S(=O)(c1ccc2nc(COc3ccccc3)[nH]c2c1)N1CCOCC1	-6.3%	-13.2%
CCN1CCCC1CNC(=O)C(=O)Nc1ccccc1 (stereo not drawn)	-5.7%	-0.8%
CCC(C)(C)n1nnnc1C(c1cc2cc3c(cc2[nH]c1=O)OCO3)N1CCN(C)CC1 (stereo not drawn)	-12.2%	-11.3%
O=C(NCc1ccccn1)c1cc(-c2ccccc2Cl)on1	-2.4%	-14.6%
CCCCNC(=O)Cc1c(OC)ccc2cc(Br)ccc12	-2.5%	-14.3%
O=C(Cn1ncc2c3ccccc3n(Cc3cccc(Cl)c3)c2c1=O)N1CCC2(CC1)OCCO2	u	-3.8%[1.46 µM]
O=C(Cc1ccc(NC(=O)C2CCN(C(=O)c3ccccc3)CC2)cc1)Nc1cccc(C(=O)N2CCCCC2)c1	8.0%	4.6%
Oc1ccc(NCc2ccccc2OCc2ccccc2Cl)cc1	-5.2%	-0.1%
CC(C)(CC(=O)O)CC(=O)N1CCN(c2nc3cc(Cl)ccc3s2)CC1	-0.9%	-10.6%
O=C(/C=C/c1cccc2ccccc12)N1CCOCC1	-7.1%	i
COC(=O)C1=C(C)NC(C)=C(C(=O)OC)C1c1ccc2ccccc2n1	-11.7%	-19.0%
COc1cccc(NC(=O)CN(CCc2ccccc2)S(=O)(=O)c2ccc(Cl)cc2)c1	10.6%	-0.2%
CN(C)c1ccc(/C=N/NC(=O)CNC(=O)/C=C/c2ccccc2)cc1	-13.4%	-11.9%
CC(=O)c1ccccc1OCC(O)CN1CCN(C(c2ccccc2)c2ccccc2)CC1 (stereo not drawn)	u	x
CC(NC(=O)Cn1cnc([N+](=O)[O-])n1)c1ccccc1 (stereo not drawn)	-11.4%	-22.4%
O=C(Cn1cnc2ccccc21)Nc1ccc(SC(F)F)cc1	-22.7%	-7.1%
Cc1cccc(Cc2cnc(NC(=O)c3ccc4c(c3)CC(c3ccccc3)OC4=O)s2)c1 (stereo not drawn)	u	u
COC(=O)C1=C(c2ccc(OC)c(OC)c2)C[C@@H]2CC[C@H]1N2C(=O)NCCNC(C)=O	-8.2%	i
CCOC(=O)c1c(C)c(C(=O)Nc2ccccc2)c(C)n1CC	-16.3%	-9.8%

A different layout for part of the listing above.
Fields: VACV Venus inh	VACV mCherry inh
CCN1CCCC1CNC(=O)C(=O)Nc1ccccc1 (stereo not drawn)
    -5.7%	-0.8%
CC(NC(=O)Cn1cnc([N+](=O)[O-])n1)c1ccccc1 (stereo not drawn)
    -11.4%	-22.4%
O=C(Cc1ccc(NC(=O)C2CCN(C(=O)c3ccccc3)CC2)cc1)Nc1cccc(C(=O)N2CCCCC2)c1
    8.0%	4.6%
O=C(Cn1ncc2c3ccccc3n(Cc3cccc(Cl)c3)c2c1=O)N1CCC2(CC1)OCCO2
    u	-3.8%[1.46 µM]
COc1ccc(Cn2c(CNS(=O)(=O)c3ccc4c(c3)CCCC4)nc3cccnc32)cc1
    -4.7%	-12.6%
Oc1ccc(NCc2ccccc2OCc2ccccc2Cl)cc1
    -5.2%	-0.1%
CCOC(=O)CNC(=O)CN1CCCN(S(=O)(=O)c2ccc(Br)s2)CC1
    -4.3%	i

Next compounds
SMILES | VACV Venus inh | VACV mCherry inh
COC(=O)c1c(N)n(Cc2ccc(OC)cc2)c2nc3ccccc3nc12 | u | x
Cc1cc(C(=O)NNC(=O)c2ccccc2F)c2ccccc2n1 | -4.0% | i
O=C(CCN1C(=O)c2ccccc2S1(=O)=O)Nc1cc(Cl)ccc1Cl | -20.0% | i
O=C(/C=C/C(=O)NCc1cccs1)NCc1cccs1 | -6.4%[7.34 µM] | i[7.34 µM]
CN(C)S(=O)(=O)c1cccc(NC(=O)c2cncc(Br)c2)c1 | -15.1% | i
COc1ccc(CN=Cc2c(C(F)(F)F)[nH][nH]c2=O)cc1 | -4.2% | -21.1%
CCNC(=O)CCc1nc(-c2ccc(C)cc2)no1 | -6.0% | -12.7%
O=C(Nc1ccccc1C(F)(F)F)N1CC=C(c2c[nH]c3ccccc23)CC1 | -9.0% | -25.9%
CCOc1ccc2nc(NC(=O)c3cccn(Cc4ccc(C)cc4)c3=O)sc2c1 | -16.4% | -29.8%
COc1ccc(CC(=O)Nc2ccc3c(C(F)(F)F)cc(=O)oc3c2)cc1OC | -4.7% | 4.7%
CCN(C(=O)c1nn(-c2ccc(OC)cc2)c(=O)c2c1c1ccccc1n2C)c1ccc(OC)cc1 | -6.2% | i
Cc1ccc(NC(=S)c2ccc(N(C)C)cc2)cc1 | -10.0% | -13.9%
O=S(=O)(NCc1ccncc1)c1ccc(S(=O)(=O)NCC2CCCO2)cc1 (stereo not drawn) | -8.7% | i
